D2 ag = activates the human D2 dopamine receptor | P14416 | DiscoveRx PathHunter D2 beta-arrestin, luminescence, 90 min; 100% = 57 uM dopamine signal | activation, % (no concentration beside the values) | 360,000 compounds, 0.084% hits; in the data active = activation above about 40%; inconclusive = about 15% to 40%; inactive = below about 15%; also: compound concentration not given in the record; the text of the record calls up to 30% inactive
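DiscoveRx PathHunter D2 beta-arrestin cells (2,100/well) attached overnight, then compound-stimulated 90 min at 37 C in HBSS/10 mM HEPES/0.1% Tween-20 buffer; beta-galactosidase complementation read by luminescence after 1 h at ambient temperature. Dopamine 57 uM final (EC100) as control.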
D2 PAM = potentiates the human D2 dopamine receptor allosterically; P14416; DiscoveRx D2 beta-arrestin cells, luminescence, 90 min; 100% = 57 uM dopamine signal; potentiation, % (no concentration beside the values); 360,000 compounds, 0.23% hits; active = potentiation of 50% or more; inconclusive = 30% to 50%; inactive = 30% or less;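 also: compound concentration not given in the record; tested on top of an EC20 dose of dopamine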
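D2 cells co-treated with compound plus 50 nM dopamine (EC20) for 90 min at 37 deg C to detect potentiation. Beta-arrestin recruitment was read as enzyme-fragment luminescence after 1 h at ambient temperature. Full response was set by 57 uM dopamine.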
gsp agonist = agonists of gsp mutant (McCune-Albright syndrome) | gsp mutant cells, cAMP HTRF, 30 min; control for the full effect not named in the record | Potency, µM (series often up to 76.9 µM), inactives show at the top dose activation (cAMP increase), most hits filed as activators | 340,000 compounds, 0.13% hits; active = well fitted activation curve with a large enough effect; inconclusive = small, poorly fitted or top-dose-only effect, or another doubt; inactive = no such curve, though single readings can be large or run the other way; cell line not stated here;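 also: phosphodiesterase inhibitor Ro 20-1724 added with compounds to block cAMP breakdown; potency is read from the fitted curve at half-maximal effect; nearly all actives have a fitted effect of over 60% in size; about a fifth of the inactives were tested at one dose only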
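Cells stably selected in G418 were plated at 2000/well, grown 16-24 hr, then given compounds in DMSO with the PDE inhibitor […] (300 uM solution added) for 30 min at 37C; cAMP was read by HTRF.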
CtBP-E1A blk = CtBP/E1A binding inhibition; AlphaScreen GST-E1A/His-CtBP binding, 1536-well; active compounds read low; control for the full effect not named in the record; activity change, % (concentration not given with the values); 340,000 compounds, 0.49% hits; in the data active means activity change below about -65%; inconclusive means about -30% to -65%; inactive means above about -30%; also: % is scaled to controls: 0 for no effect and ±100 for the full control effect
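AlphaScreen with 125 nM GST-E1A and 125 nM His-CtBP (5X stocks) in Tris pH 8.0, 300 mM NaCl, BSA, Tween 20, TCEP. Compounds preincubated 2 h at 37 deg C, then glutathione donor/nickel acceptor beads added for 1 h at 37 deg C in dark.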
gsp antagonist = gsp mutant antagonism. gsp-mutant cells, cAMP HTRF, 30 min; control for the full effect not named in the record. Potency, µM (top dose mostly 76.9 µM), inactives show top-dose activity change, negative = inhibition, actives largely listed as inhibitors. 340,000 compounds, 0.4% hits; active = falling curve of any shape with a large fitted effect; inconclusive = falling curve, mostly with a smaller effect; inactive = flat or rising curve; cell line not stated here;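 also: intracellular cAMP measured with PDE inhibitor Ro 20-1724 present during compound exposure; potency is read from the fitted curve at half-maximal effect; % is scaled to controls: 0 for no effect and ±100 for the full control effect; nearly all actives have a fitted effect of over 65% in size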
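HTRF cAMP read-out (cAMP-d2 plus anti-cAMP antibody-K in lysis buffer, 30 min RT). Before lysis, cells are exposed to compounds with […] for 30 min at 37C in DPBS containing Ca/Mg, BSA and Tween 20.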
Six1-Eya2 inh = blocks human Six1 binding to Eya2; 360,000 compounds, 0.56% hits; AlphaScreen GST-Six1/His-Eya2 binding, biochemical; active compounds read low; control for the full effect not named in the record; Q15475+O00167; activity change, % (concentration not given with the values); in the data active = activity change below about -65%; inconclusive = about -30% to -65%; inactive = above about -30%; also: % is scaled to controls: 0 for no effect and ±100 for the full control effect
Target sequence (O00167 whole entry, looked up): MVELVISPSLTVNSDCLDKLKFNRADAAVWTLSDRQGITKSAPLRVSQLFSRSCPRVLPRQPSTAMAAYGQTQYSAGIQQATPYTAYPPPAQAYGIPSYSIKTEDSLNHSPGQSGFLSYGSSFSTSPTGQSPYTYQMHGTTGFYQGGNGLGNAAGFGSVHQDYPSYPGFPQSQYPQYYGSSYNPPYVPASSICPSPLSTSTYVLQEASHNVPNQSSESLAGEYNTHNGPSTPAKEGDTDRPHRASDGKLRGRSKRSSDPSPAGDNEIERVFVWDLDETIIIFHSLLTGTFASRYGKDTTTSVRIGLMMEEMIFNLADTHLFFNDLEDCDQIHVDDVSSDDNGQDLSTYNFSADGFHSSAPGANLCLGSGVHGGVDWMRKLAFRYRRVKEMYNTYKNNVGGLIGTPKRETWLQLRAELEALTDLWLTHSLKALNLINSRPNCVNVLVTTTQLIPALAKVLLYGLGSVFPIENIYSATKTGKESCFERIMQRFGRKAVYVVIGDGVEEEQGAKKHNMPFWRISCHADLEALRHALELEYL
Target sequence (Q15475 whole entry, looked up): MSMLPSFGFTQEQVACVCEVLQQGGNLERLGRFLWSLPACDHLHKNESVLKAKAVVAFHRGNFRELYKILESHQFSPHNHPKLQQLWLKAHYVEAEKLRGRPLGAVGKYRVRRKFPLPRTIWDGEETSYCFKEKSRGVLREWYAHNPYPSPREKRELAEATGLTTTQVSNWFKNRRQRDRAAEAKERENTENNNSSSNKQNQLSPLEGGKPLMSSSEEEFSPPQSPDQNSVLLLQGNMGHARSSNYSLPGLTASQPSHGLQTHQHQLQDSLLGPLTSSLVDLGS
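AlphaScreen luminescence read after one hour at 37 °C in darkness. Pin-transferred compounds met GST-Six1 and His-Eya2 protein (5X stock 250 nM/500 nM) plus glutathione donor and Ni-chelate acceptor beads (5X, 50 ug/mL).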
* = called active by the depositor; ? = inconclusive; · = not tested or not shown; [ ] = another dose, or the depositor's remark.

SMILES | D2 ag | D2 PAM | gsp agonist | CtBP-E1A blk | gsp antagonist | Six1-Eya2 inh
CCOc1ccc(S(=O)(=O)Nc2ccc(Cl)cn2)c(C)c1C | -2.4 | -2 | -31% | -1 | ? | -1
COc1ccc(C(=O)Nc2nc(CC(=O)NCc3c(F)cccc3F)cs2)cc1 | 9.5 | -4 | 3% | -8 | · | 3
CC(C)(C)Nc1c(N)c(=O)oc2ccccc12 | 0.7 | -11 | 11% | -9 | -2% | 4
CCCN1C(=O)NC2(O)C(=O)c3ccccc3C12O (stereo not drawn) | -1.0 | -7 | ? | 0 | -2% | -1
Cn1cc(Cl)c(C(=O)N2CCN(c3ncccn3)CC2)n1 | -2.1 | -5 | -26% | 4 | 21% | 1
CC1CN(S(=O)(=O)c2cccc(C(=O)Nc3ccc(S(=O)(=O)NC4=NCCCCC4)cc3)c2)CC(C)O1 (stereo not drawn) | -4.1 | -26 | -36%[inhibitor] | 3 | 0% | -9
CCOC(=O)CSc1nnc(-c2ccc(S(=O)(=O)N3CCC(C)CC3)cc2)o1 | -3.1 | -2 | -59%[inhibitor] | 6 | 5% | 2
Nc1nc(NCc2ccccc2Cl)n(-c2ccccc2)n1 | -0.6 | -14 | 6%[15.4 µM] | 2 | 9% | 4
C/C(=N\NC(=O)c1[nH]c2c([N+](=O)[O-])cc(C)cc2c1-c1ccccc1)c1cccnc1 | -4.0 | -3 | -58%[inhibitor] | -1 | -4% | -8
COc1ccc(C(C)=O)cc1CS(=O)(=O)CC(=O)O | 2.5 | -2 | 3%[15.4 µM] | 1 | · | -4
Cc1ccc(NC(=O)c2ccc(Nc3c([N+](=O)[O-])cc([N+](=O)[O-])cc3[N+](=O)[O-])cc2)cc1 | -6.4 | -10 | -3% | ? | ? | ?
CC(=O)c1ccc(Oc2cc(C)nc(NCc3ccccc3)n2)cc1 | -0.3 | 1 | -5% | 6 | -7% | 2
Clc1ccccc1-c1nnc2sc(-c3ccncc3)nn12 | -8.8 | -1 | 0% | -9 | 13% | -2
Cc1cc(NC(=O)Nc2cc(F)ccc2F)no1 | 2.4 | -8 | -33%[inhibitor] | · | -12% | -2
O=C(CSc1ccccc1)N(c1ccc(Br)cc1)c1nccs1 | -2.5 | 2 | -31% | 10 | ? | 19
C/C(=N/NC(=O)CN1CCN(S(=O)(=O)c2ccc(C)cc2)CC1)c1ccco1 | -1.4 | -3 | -2% | 3 | -13% | 5
COc1cc(C2/C(=C(\O)c3cc(C)ccc3C)C(=O)C(=O)N2CCN(C)C)ccc1O (stereo not drawn) | -0.6 | 4 | 3% | 3 | 10% | 7
COc1ccc(Cl)cc1Nc1cc(C)nc2nc(C)nn12 | -6.4 | -2 | -5% | 0 | -4% | 1
CCOC(=O)CCCNC(=O)COC(=O)c1ccc(O)cc1 | -4.8 | -11 | 8% | 2 | 5% | -27
O=C(O)c1ccc(N2CCCCCC2)c(N2C(=O)c3ccccc3C2=O)c1 | 0.1 | -1 | ? | 10 | -12% | 4
CCCOC(=O)Oc1ccc2c(=O)c(Oc3cc(C)cc(C)c3)coc2c1 | -0.3 | 0 | ? | -9 | ? | -9
CSc1nnc2c(n1)OC(c1ccccn1)N(C(C)=O)c1ccccc1-2 (stereo not drawn) | -6.4 | -4 | -2%[15.4 µM] | -3 | 10% | -3
CCOc1ccc(N2CC(C(=O)Nc3cccc(S(=O)(=O)N4CCCCC4)c3)CC2=O)cc1 (stereo not drawn) | 2.6 | -1 | -10%[15.4 µM] | -4 | -12% | -1
O=C(CSc1nncn1-c1ccccn1)Nc1cccc(Cl)c1 | -3.6 | -3 | -21% | 9 | -4% | 1
Cc1ccc(-c2nn(C)c(=O)c3ccccc23)cc1CN1CCOCC1 | -3.6 | -15 | -13% | 2 | -7% | -1

Rewritten as labelled records: part of the list above.
COc1ccc(Cl)cc1Nc1cc(C)nc2nc(C)nn12
  D2 ag: -6.4
  D2 PAM: -2
  gsp agonist: -5%
  CtBP-E1A blk: 0
  gsp antagonist: -4%
  Six1-Eya2 inh: 1

CCOC(=O)CCCNC(=O)COC(=O)c1ccc(O)cc1
  D2 ag: -4.8
  D2 PAM: -11
  gsp agonist: 8%
  CtBP-E1A blk: 2
  gsp antagonist: 5%
  Six1-Eya2 inh: -27

Following part.
SMILES | D2 ag | D2 PAM | gsp agonist | CtBP-E1A blk | gsp antagonist | Six1-Eya2 inh
CC(=O)Nc1cccc(C(=O)OCc2csc(CC(=O)Nc3ccccc3C)n2)c1 | -1.0 | 0 | -9% | -12 | -9% | 0
Cn1c(=O)n(C)c2cc([N+](=O)[O-])c(N3CCN(S(C)(=O)=O)CC3)cc21 | 3.4 | -4 | -1% | -3 | -3% | -1
CCN1CCN(Cc2c(O)ccc3c(=O)c(-c4ccc(OC)c(OC)c4)c(C(F)(F)F)oc23)CC1 | -3.1 | 2 | 11% | 2 | -1% | 1
O=C(Nc1ccc(N2CCCCC2)c(Cl)c1)c1ccc2c(c1)OCCO2 | 0.5 | -1 | -6% | -1 | -22% | -8
CCn1c(-c2nn(C)cc2Cl)n[nH]c1=S | -4.1 | -17 | 5% | 4 | 9% | 3
O=C(/C=C/c1ccco1)NCCc1ccc(F)cc1 | -4.5 | -5 | 18% | -1 | 3% | -9
COc1ccc(OCc2nnc3n2N=C(c2ccc(OC)cc2)CS3)cc1 | 4.5 | -2 | -34%[inhibitor] | -8 | 1% | -9
O=C(Nc1ccnn1C1CCN(Cc2cc(Cl)ccc2O)CC1)c1cccnc1 | -1.2 | -23 | -47%[inhibitor] | -11 | 0% | -2
O=C(c1cccs1)N1CCCC(c2nc3c(nnn3Cc3ccc(F)cc3)c(=O)[nH]2)C1 (stereo not drawn) | -2.0 | -1 | ? | -9 | 1% | 1
CCOC(=O)C1=NOC2COC3(CCN(c4ncccn4)CC3)OCC12 (stereo not drawn) | 0.0 | -2 | ? | -2 | 4% | -2
O=C(COC(=O)c1ccc(S(=O)(=O)N2CCCCC2)cc1)NCc1ccco1 | -10 | 3 | 8%[15.4 µM] | 10 | 5% | -5
Cc1ccc(-c2csc(=S)n2CC(=O)OCC(=O)NC(C)C(C)C)cc1 (stereo not drawn) | 1.9 | 2 | -15% | -1 | ? | -3
Cc1noc(C)c1CSCC(=O)OCC(=O)N1CC(=O)Nc2ccccc21 | -0.3 | 4 | 28% | 2 | 12% | 10
CN(C)c1nnnn1-c1cccc(Oc2ncc(C(F)(F)F)cc2Cl)c1 | 2.0 | -1 | -56%[inhibitor] | 9 | -21% | -1
CCc1cc(=O)oc2cc(OC(=O)CN3C(=O)NC4(CCCC4)C3=O)ccc12 | -7.7 | -10 | -3%[15.4 µM] | -5 | 5% | 3
CCc1nnc(NC(=O)CSc2nnc(CNc3ccc(Cl)cc3)o2)s1 | 5.6 | 4 | 7% | -22 | -22% | -7
CN(C)S(=O)(=O)c1cccc(COc2ncnc3c(Cl)cc(Cl)cc23)c1 | -3.2 | -7 | ? | 6 | -6% | 11
Cc1ccccc1C(=O)N1N=C(c2ccc(NS(C)(=O)=O)cc2)CC1c1cccs1 (stereo not drawn) | -1.9 | 0 | 1% | -3 | ? | -3
COc1cccc(-c2noc(N)c2C#N)c1 | ? | ? | 7% | -17 | 11% | -14
O=C(NCC1CCCCC1)c1csc([C@@H]2C[C@H](O)[C@@H](CO)O2)n1 | 4.8 | -7 | · | -8 | · | 14
CC(C)(C)Nc1nc(Oc2ccc(=O)[nH]n2)nc(N2CCOCC2)n1 | -2.2 | -2 | 5%[15.4 µM] | 0 | 7% | 1
O=C(NCc1ccco1)C(c1ccccc1)N(C(=O)Cc1cccs1)c1ccccc1 (stereo not drawn) | 0.9 | -9 | -5% | 3 | 12% | 2
O=C(CN1CCN(C(=O)CNC(=O)c2ccc3c(c2)OCO3)CC1)Nc1cccc(F)c1 | 1.4 | -15 | 8% | · | 5% | 9
COCCn1c(-c2ccccc2)csc1=Nc1cccnc1 | 1.1 | -2 | -12% | ? | -17% | -4
Cc1ccc(C)c(C(=O)CCC(=O)Nc2ccc(F)cc2)c1 | 0.2 | -8 | -19%[15.4 µM] | -17 | 2% | 29

Molecules listed so far containing a COOH group:
SMILES | D2 ag | D2 PAM | gsp agonist | CtBP-E1A blk | gsp antagonist | Six1-Eya2 inh
COc1ccc(C(C)=O)cc1CS(=O)(=O)CC(=O)O | 2.5 | -2 | 3%[15.4 µM] | 1 | · | -4
O=C(O)c1ccc(N2CCCCCC2)c(N2C(=O)c3ccccc3C2=O)c1 | 0.1 | -1 | ? | 10 | -12% | 4

Following part:
SMILES | D2 ag | D2 PAM | gsp agonist | CtBP-E1A blk | gsp antagonist | Six1-Eya2 inh
Cc1ccccc1OCC(=O)OCC(=O)NCCc1ccccc1 | -2.8 | 3 | -9% | · | 5% | -8
CN(C)c1ccnc2sc3c(SCc4ccc(Cl)cc4)ncnc3c12 | -1.0 | -2 | 15% | 3 | 21% | -10
Cc1ccc(-c2csc(/C(C#N)=C(\O)CCl)n2)cc1 | 2.3 | 4 | -36%[15.4 µM] | 28 | -18% | 18
O=C1c2ccccc2C(=O)N1CC(O)COc1ccc(Br)cc1 (stereo not drawn) | -0.7 | 1 | 17% | 6 | 7% | 1
O=C(NN=C1CCCCCC1)c1ccncc1 | -0.1 | -7 | -30%[inhibitor] | -6 | 2% | -1
Cc1cc(C(=O)CS(=O)(=O)c2ccc(F)cc2)cc(C)c1O | -4.2 | -13 | 10%[15.4 µM] | -3 | 0% | -22
Cc1ccc(-c2nn(-c3ccccc3)cc2C(=O)N2CCOCC2)cc1 | -3.1 | -11 | -6% | -16 | 4% | 3
CCCCc1nc(Cl)c(C#N)c2c1CCC2 | 2.4 | -29 | -26%[15.4 µM] | -17 | 1% | 15
Cc1occc1-c1nnc(SCC(=O)N2CCOCC2)n1CCc1ccccc1 | -2.9 | -24 | -12% | 2 | -8% | 0
CCOc1cc(N2CCOCC2)c(OCC)cc1NC(=O)CCS(=O)(=O)c1ccc(Cl)cc1 | 4.6 | 11 | -18% | -10 | 2% | -6
Cc1ccc(-n2c(SCc3ccc([N+](=O)[O-])cc3)nc3ccccc3c2=O)cc1 | -2.4 | -6 | ? | 5 | 0% | -1
CCCc1cc(=O)[nH]c(SCC(=O)c2cc(C)n(CC(F)(F)F)c2C)n1 | 2.4 | 14 | -10%[15.4 µM] | 13 | 6% | 0
CC(=O)c1ccc(N2CCN(C(=O)/C=C/c3ccc4ccccc4n3)CC2)cc1 | -4.8 | -3 | -39%[inhibitor] | -7 | -2% | 0
O=C(NCc1cccc(OC(F)(F)F)c1)c1cccc2c1C(=O)c1ccc(-c3ccc(F)cc3OCc3ccccc3)cc1S2(=O)=O | -1.8 | -34 | · | -6 | -2% | -7
O=C(COc1ccc(Cl)cc1)NCc1nnc(SCC(=O)N2CCCC2)o1 | -1.1 | 3 | -32%[inhibitor] | 6 | 6% | 6
O=C(CN1C(=O)NC2(CCCCCC2)C1=O)c1ccc2c(c1)OCCO2 | 2.2 | 21 | -17% | 4 | -10% | 3
